Assay outcomes as filed in PubChem BioAssay.
VACV mCherry inh – qHTS for Stage-Specific Inhibitors of Vaccinia Orthopoxvirus: mCherry Reporter Primary qHTS. Vaccinia virus mCherry reporter infection, fluorescence; about a quarter of the inactives have no number. Potency, µM (doses to about 36.5 µM), without a hit: at the top dose activity change, negative = inhibition, actives largely listed as inhibitors. 310,000 tested, 0.63% active; active = well fitted inhibition curve with a large enough effect; inconclusive = small, poorly fitted or top-dose-only effect; inactive = no such curve, though single readings can be large or run the other way; tested in A549 cells; further: nearly all actives have a fitted effect of over 35% in size; inactives centre near -10
VACV Venus inh – qHTS for Stage-Specific Inhibitors of Vaccinia Orthopoxvirus: Venus Reporter Primary qHTS. 330,000 tested, 0.46% active. Vaccinia virus Venus reporter expression, fluorescence. Potency, µM (highest dose often 36.5 µM), without a hit: top-dose activity change, negative = inhibition, most hits filed as inhibitors; active means well fitted inhibition curve with a large enough effect; inconclusive means small, poorly fitted or top-dose-only effect; inactive means no such curve, though single readings can be large or run the other way; tested in A549 cells; further: nearly all actives have a fitted effect of over 30% in size; inactives centre near -10
An asterisk follows results filed as active; i = inactive; ? = inconclusive; . = not tested or not shown; & = joins results of further samples; [ ] = remark or other dose. On the % scale 0 is the no-effect control and ±100 the full control effect; potency means the concentration at half of the fitted maximal effect.

compound	VACV mCherry inh	VACV Venus inh
CCOC(=O)C1=C(c2ccccc2)NC(=O)NC1c1ccc(OC)cc1 (centres undefined)	-3%	-6%
Cc1ccc(N(CC(=O)N2CCN(c3ccc(F)cc3)CC2)S(=O)(=O)c2c(C)noc2C)cc1	-18%	-21%&-11%
CCOc1ccccc1C(=O)NC(C(=O)NCCc1ccccn1)C(C)C (centres undefined)	i	-10%
CCOC(=O)CSc1nccc(N(C)C)c1C#N	.	4%
CCc1ccc(N2C(=O)CN(Cc3sccc3C)C2=S)cc1	i	2%
O=C(Nc1cccc(Cl)c1)Nc1ccc(Cl)cn1	.	-13%
CCn1cnc2sc(-c3ccccc3)cc2c1=O	-4%[1.46 µM]	-19%
O=C(CN1C(=O)COc2ccc(Cl)cc21)Nc1cccc(F)c1	-10%	-15%
COC(=O)c1cc(Br)c(=O)n(CCC2=CCCCC2)c1	.	-20%
COc1ccc(CC(=O)N2CCCc3ccccc32)cc1OC	-13%	-8%
CC(C)(C)c1cc(NC(=O)COC(=O)c2ccc(O)cc2O)n(-c2ccccc2)n1	i	-6%
Cc1cc(Nc2sc(C(=O)c3ccc(F)cc3)c(N)c2C(=O)Nc2ccc(F)cc2)ccc1Cl	5µM*	?
COc1cc(NC(=O)c2c3c(nc4ccccc24)C(=O)N(C2CCCCC2)C3)cc(OC)c1	i	-6%
COc1ccc(-n2nc(C(=O)NCC(=O)NCCCN3CCOCC3)c3ccccc3c2=O)cc1Cl	i	-9%
CC(C)c1ccc(/C=C/C(=O)O)cc1	18%	7%
COc1ccccc1N1CCN(CC(O)c2ccc3cc[nH]c3c2)CC1 (centres undefined)	-20%	-17%
O=C(Nc1ccc(Oc2ccc(C(=O)O)c(C(=O)O)c2)cc1)c1cccs1	-10%	-6%
Cc1cc(F)ccc1S(=O)(=O)N1CCCOC1CNC(=O)C(=O)NCc1ccco1 (centres undefined)	-15%	0%
O=C(CSc1nc(-c2ccccc2)c(-c2ccccc2)[nH]1)Nc1ccc2c(c1)OCO2	-27%	-27%
COc1cc2c(cc1OC)-c1nc3ccccc3c(=O)n1C(C)(C)C2	?	-30%
CNc1nc(SCC(=O)Nc2ccccc2)nc(N2CCOCC2)n1	-12%	-1%
Cc1ccc(Cn2c(=O)n(C)c(=O)c3sccc32)cc1	i	-20%
COc1ccc2c(c1)-c1ccccc1S(=O)(=O)N2C(C)=O	i	-4%
O=C(O)C1(O)C[C@H](O)C(O)[C@@H](O)C1 (some centres undefined)	-8%	-8%
CCC(=O)Nc1ccc(NC(=O)CSc2nnnn2-c2cccnc2)cc1C	0%	-11%
COc1ccc(C(=O)Nc2cc(OC)cc(OC)c2)cc1	-22%	-18%
CCCN(CCC)CCCNC(=O)Cn1ncn2c(cc3sc(CC)cc32)c1=O	-13%	-10%
CC1CCN(C(=O)CCl)CC1	-7%	?
Cc1ccc(OCC(=O)Nc2sc3c(c2C#N)CC(C)(C)NC3(C)C)cc1	-6%	-19%
O=C(Cn1c(=O)oc2cc(S(=O)(=O)N3CCCCCC3)ccc21)Nc1cccc(C(F)(F)F)c1	-13%	-30%

Whole records as entered above:
Cc1ccc(Cn2c(=O)n(C)c(=O)c3sccc32)cc1 as listed: VACV mCherry inh: i; VACV Venus inh: -20%
Cc1ccc(OCC(=O)Nc2sc3c(c2C#N)CC(C)(C)NC3(C)C)cc1 as listed: VACV mCherry inh: -6%; VACV Venus inh: -19%

More compounds follow.
compound	VACV mCherry inh	VACV Venus inh
Cc1ccc(C)c(NC(=O)CN(C)C(=O)[C@@H](NC(=O)c2ccc(C(C)(C)C)cc2)C(C)C)c1	28µM*	14µM*
COc1ccc(/C=C(\NC(=O)c2ccc(Cl)cc2)C(=O)NCC2CCCO2)cc1OC (centres undefined)	-10%	-13%
O=C(Nc1ccc(O)c(-c2nc3ccccc3o2)c1)c1ccco1	-6%	3%
Cc1ccc(NC(=O)NC(=O)CSc2nnc(-c3ccc(Cl)cc3Cl)n2N)c(C)c1	-9%	-4%
CCc1cc(C(=O)N(Cc2ccccc2)c2c(N)n(CCOC)c(=O)[nH]c2=O)sc1C	-14%	-15%
O=C(NCC(F)(F)F)c1nn(Cc2ccccc2)c(=O)c2ccccc12	i	-13%
CC(C)CCOc1ccc(C(=O)O)cc1	.	-10%
C=C(C)Cn1c2ccc(NC(=O)CCc3cccnc3)cc2c(=O)n1C	i	-3%
CCOC(=O)c1c(C)c[nH]c1C	-11%	-2%
COC(=O)C1CCCN1C(=O)C1CCCN1C(=O)CNC(=O)OCc1ccccc1 (centres undefined)	.	-11%
CN(Cc1ccccc1)S(=O)(=O)c1ccccc1Br	i	-11%
CCC(=O)N1c2ccccc2C(N(C(=O)CC)c2ccccc2)CC1C (centres undefined)	i[7.34 µM]	-2%[7.34 µM]
CCOc1cccc2cc(C(=O)NC(C)c3ccccc3)c(=N)oc12 (centres undefined)	-25%	-27%
O=C(/C=C/c1ccccc1)N(Cc1ccc(Cl)cc1)C1CCS(=O)(=O)C1 (centres undefined)	-16%	-11%
CCOC(=O)c1[nH]c2ccc(OC)cc2c1C	1%	0%
S=C(Nc1ccc2snnc2c1)N1CCN(c2ccccn2)CC1	-14%	-3%
CC(=O)NCCn1c(SCC(=O)Nc2ccc(C)cc2)nc2ccccc2c1=O	2%&-2%	1%&5%
Cc1cc(Cc2cc(C)c(O)c(CO)c2)cc(CO)c1O	5.6µM*	-26%
CCOc1cc(C(=O)N(C)CC(=O)Nc2cccc(F)c2)ccc1OCC(=O)N1CCCCC1	-12%	-9%
O=C(Nc1nnc(-c2cc(Cl)ccc2Cl)o1)c1ccc2c(c1)OCCO2	-6%[7.34 µM]	-5%[7.34 µM]
O=C(CNC(=O)c1ccccc1)OCc1cc(=O)n2nc(C3CCCCC3)sc2n1	-2%	0%
COc1ccc(C)cc1NC(=O)c1nn(-c2ccccc2)cc1OC	?	?
C/C(=N\O)C(=O)NCCCNCCCN(C)C	-14%	-13%
CC1CCN(C(=O)CN(Cc2ccc(F)cc2)S(C)(=O)=O)CC1	i	5%
NC(=O)CC(NC(=O)Cc1ccc(Br)cc1)c1ccc(NC2CCN(Cc3ccccc3)CC2)c([N+](=O)[O-])c1 (centres undefined)	?	?
CCNC(=O)C1(C)CCN(C(=O)c2ccc(-c3ccccc3)cc2)C1 (centres undefined)	-7%	-5%
CCN(CC)c1ccc2nc3ccccc3[n+](CC)c2c1	50%[activator]	?
Cc1ccc2nc(-c3ccccn3)oc2c1	-10%	-7%
CCOC(=O)C(C(=O)NCc1cccc(OC)c1)c1ncc(C(F)(F)F)cc1Cl (centres undefined)	.	-7%
Cc1ccc(CCNC(=O)CCn2nc(-c3ccccc3)ccc2=O)cc1	-4%	-12%
O=S(=O)(NCc1ccccc1Cl)c1cccs1	i	-2%
COc1cc(OC)c2c(O)c3c(c(-c4c5c(c(O)c6c(OC)cc(OC)cc46)CO[C@@H](C)[C@H]5O)c2c1)[C@H](O)[C@H](C)OC3	4%	21%
CC(C)c1ccc(C(C(=O)NC(C)(C)C)N(C(=O)CNC(=O)c2ccco2)c2cccnc2)cc1 (centres undefined)	-11%	-2%
O=C(N/N=C/c1c(O)n(-c2ccccc2Cl)c(=O)c2ccccc12)c1cccnc1	-1%	0%
CCNC(=O)N1CCCC(C(=O)c2ccc3cc(OC)ccc3c2)C1 (centres undefined)	-25%	-12%
COc1ccc(N(C(=O)c2snc(C(N)=O)c2N)C(C(=O)NC2CCCCC2)c2ccc(C)o2)cc1 (centres undefined)	-17%	-14%
CCOc1ccccc1NC(=O)NCc1noc2ccc(C)cc12	-14%	-13%
C1CCCN(c2nc3nonc3nc2N2CCCCCC2)CC1	-8%	-8%
COc1ccc(Cl)cc1NC(=O)CSc1nccn1-c1ccc(Cl)cc1	-7%	-20%
CCN(CC)C(=S)Nc1ccc(OC)cc1	-10%	-6%
Cc1ccc(CCNC(=O)C2CCC(CNc3c(N4CCC(C)CC4)c(=O)c3=O)CC2)cc1 (centres undefined)	?	?
O=C(NNC(=O)c1ccccc1Cl)c1cccs1	-20%	-16%
COc1ccc(-c2nc(SCC(=O)N(CC(C)C)c3c(N)n(Cc4ccccc4)c(=O)[nH]c3=O)n[nH]2)cc1	?	-5%
O=C(Nc1ccccc1C(=O)N1CCCCCC1)c1cccc([N+](=O)[O-])c1	-15%	-15%
COc1ccc(OCc2cc(C(=O)N3CCCCCCC3)no2)c(Cl)c1	-5%	-17%
O=C(CN1C(=O)NC2(CCCCC2)C1=O)NCCc1ccc(Cl)cc1Cl	-5%	-13%
COc1ccc(Cc2c(O)nc(SCC(=O)N3CCOCC3)[nH]c2=O)cc1	i	1%
COc1ccc(S(=O)(=O)N2CCC(C(=O)Nc3ccc(F)cc3)CC2)c2cccnc12	-3%	4%
NC(=O)COc1ccc2cc(-c3ccc(F)cc3)c(=O)oc2c1	i	-3%
Cc1nc2cc(-c3ccccc3)nn2c(C)c1CCC(=O)NCc1cccc(Cl)c1	-5%	-1%
Cn1ccc2cc(S(=O)(=O)N3CCN(C(=O)Nc4ccc(F)cc4F)CC3)ccc21	3%	12%
O=C(CC1SC(=Nc2ccccc2F)N(CCN2CCOCC2)C1=O)Nc1ccc(F)cc1F (centres undefined)	-14%	-20%
CC(=O)Nc1ccc(NC(=O)COC(=O)[C@@H](NC(=O)c2ccc(F)cc2)C(C)C)cc1	-6%	-2%
C/C(CC(=O)Nc1cccc2c1CCCC2)=N\NC(=O)Cc1ccccc1	i	-12%
Cc1cc(C)c(S(=O)(=O)N2CCCCC2CCNC(=O)C(=O)NCc2ccccn2)c(C)c1 (centres undefined)	-25%	-20%
Cc1ccc(CNC(=O)C2CCN(c3nc(C)cc(C)n3)CC2)cc1	-30%	-7%
COc1ccc(CCNC(=O)CS(=O)Cc2nc(-c3ccc(C)cc3)oc2C)cc1OC (centres undefined)	-8%	-24%
CC(=O)N1CCN(C(=O)c2cccc(S(=O)(=O)N3CCN(c4ccc(F)cc4)CC3)c2)CC1	-18%	-7%
O=C(COC(=O)c1cccc([N+](=O)[O-])c1)Nc1ccc(Cl)cn1	i	4%
COC(c1ccccc1)c1nnc(CCC(=O)NCc2ccc3ncccc3c2)o1 (centres undefined)	-7%	-9%

Already shown: an excerpt of the list.
compound	VACV mCherry inh	VACV Venus inh
COc1ccc(-c2nc(SCC(=O)N(CC(C)C)c3c(N)n(Cc4ccccc4)c(=O)[nH]c3=O)n[nH]2)cc1	?	-5%
O=C(Nc1ccccc1C(=O)N1CCCCCC1)c1cccc([N+](=O)[O-])c1	-15%	-15%
COc1ccc(OCc2cc(C(=O)N3CCCCCCC3)no2)c(Cl)c1	-5%	-17%
O=C(CN1C(=O)NC2(CCCCC2)C1=O)NCCc1ccc(Cl)cc1Cl	-5%	-13%
COc1ccc(Cc2c(O)nc(SCC(=O)N3CCOCC3)[nH]c2=O)cc1	i	1%
COc1ccc(S(=O)(=O)N2CCC(C(=O)Nc3ccc(F)cc3)CC2)c2cccnc12	-3%	4%
NC(=O)COc1ccc2cc(-c3ccc(F)cc3)c(=O)oc2c1	i	-3%
Cc1nc2cc(-c3ccccc3)nn2c(C)c1CCC(=O)NCc1cccc(Cl)c1	-5%	-1%
Cn1ccc2cc(S(=O)(=O)N3CCN(C(=O)Nc4ccc(F)cc4F)CC3)ccc21	3%	12%
O=C(CC1SC(=Nc2ccccc2F)N(CCN2CCOCC2)C1=O)Nc1ccc(F)cc1F (centres undefined)	-14%	-20%
CC(=O)Nc1ccc(NC(=O)COC(=O)[C@@H](NC(=O)c2ccc(F)cc2)C(C)C)cc1	-6%	-2%
C/C(CC(=O)Nc1cccc2c1CCCC2)=N\NC(=O)Cc1ccccc1	i	-12%
Cc1cc(C)c(S(=O)(=O)N2CCCCC2CCNC(=O)C(=O)NCc2ccccn2)c(C)c1 (centres undefined)	-25%	-20%
Cc1ccc(CNC(=O)C2CCN(c3nc(C)cc(C)n3)CC2)cc1	-30%	-7%
COc1ccc(CCNC(=O)CS(=O)Cc2nc(-c3ccc(C)cc3)oc2C)cc1OC (centres undefined)	-8%	-24%
CC(=O)N1CCN(C(=O)c2cccc(S(=O)(=O)N3CCN(c4ccc(F)cc4)CC3)c2)CC1	-18%	-7%
O=C(COC(=O)c1cccc([N+](=O)[O-])c1)Nc1ccc(Cl)cn1	i	4%
COC(c1ccccc1)c1nnc(CCC(=O)NCc2ccc3ncccc3c2)o1 (centres undefined)	-7%	-9%
